PrP 5UTR inh = inhibition of PrP 5' UTR reporter expression; cell-based PrP 5' UTR mRNA reporter, plate reader; inhibition, % (no concentration beside the values); 340,000 tested, 0.35% active;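 active = every replicate at 50% or more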;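 note: 0 = median of the neutral control wells; tested in H4 reporter cells; numbers are from one replicate; inactives centre near -14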
RN4220 kill = S. aureus RN4220 growth inhibition; AID 1259311; 330,000 tested, 0.33% active; OD600, 16 h; inhibition, % (test concentration not listed);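 active = z-score of -3 or lower and OD600 up to 0.18 on both plates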;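 note: plate controls were untreated cells for no effect and reference antibiotic for full effect; stock transfer was 100 nL into about 80 µL; one replicate is shown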
Bead autofluor = compound fluorescence in toxin protease inhibitor counterscreen; fluorescence intensity (concentration not given with the values); compound autofluorescence counterscreen, microsphere flow cytometry; stronger effect = higher value; 360,000 tested, 3.1% active;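 active = at least 3 SD above the mean of all compounds, about 16000 in these data; inconclusive = too few beads counted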;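 note: 100 nL of 1 mM stock went into each well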
ugtP null kill = kills S. aureus RN4220 lacking UgtP; S. aureus RN4220 ugtP deletion, OD600 growth, 16 h; some inactives read as strong as hits; growth inhibition, % (concentration not given with the values); 330,000 tested, 0.54% active;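 active = z-score under -3 and OD600 up to 0.15 on both plates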;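 note: plate controls were untreated wells for no effect and antibiotic for full effect; wells of about 80 µL received 100 nL stock; the first replicate is given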
Mtb hypoxia rep = inhibitors of hypoxia-regulated fluorescent reporter in Mycobacterium tuberculosis | 300,000 tested, 0.1% active | fluorescence inhibition, % (concentration not given with the values) | AID 1159583 | M. tuberculosis hypoxia-regulated fluorescent reporter, fluorescence;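 active = 35 to 45% if threefold the growth effect, above 45% if 1.5-fold the growth effect; inactive = the rest, general growth blockers included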;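 note: wells of about 50 µL received 100 nL stock; 0% = vehicle wells and 100% = reference inhibitor wells; whole bacteria with a GFP reporter of the hypoxia response; strong numbers were not always called active; many hits fall short of the cut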
BJeLR lethal = BJeLR cell viability loss. 300,000 tested, 0.17% active. AID 1554. BJeLR (HRASV12) viability, CellTiter-Glo ATP luminescence, 48 h; reference of the scale not given here. inhibition, % (test concentration not listed);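 active = replicate mean above 50%; inconclusive = above 50% but judged a plate artefact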;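 note: 50 nL library stock added to about 25 µL; numbers are from one replicate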
Mtb hypoxia rep growth = also measured in Mtb hypoxia rep; calls as there; growth inhibition, %; measured here: M. tuberculosis growth (absorbance);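 0% = vehicle and 100% = reference antibiotic; read after six days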
* hit, by the source's call; ? = inconclusive; nt = no result given.

item	canonical_smiles	PrP 5UTR inh	Mtb hypoxia rep	RN4220 kill	Mtb hypoxia rep growth	Bead autofluor	ugtP null kill	BJeLR lethal
1	O=C(O)COc1ccc(-c2nnn(Cc3ccccc3F)n2)cc1	-10	nt	0.2	nt	4943	5	-2
2	COc1ccc(CCC(=O)NNC(=O)c2cccs2)cc1	-16	15	8.5	6	4108	5	nt
3	O=C(Nc1cccc(C(=O)N2CCOCC2)c1)c1ncn[nH]1	-21	15	-0.1	2	5610	2	3
4	CCC(C)Nc1cc(C)c(C#N)c2nc3ccccc3n12 (configuration not stated)	6	1	-2.8	-8	3284	16	-13
5	CCCOc1ccc(N2C(=O)CC(N(CCOC34CC5CC(CC(C5)C3)C4)C(C)=O)C2=O)cc1 (configuration not stated)	-14	3	3.3	5	3261	5	-3
6	CCNC(=O)Cc1ccc(Br)cc1	-5	nt	3.3	nt	2702	-3	-5
7	CC1CCN(CCCNC(=O)c2n[nH]c(=O)c3ccccc23)CC1	-15	nt	7.5	nt	2458	12	4
8	COc1ccccc1Nc1nc(-c2sc(NC(=O)C(C)(C)C)nc2C)cs1	-9	-3	-2.7	4	4547	-1	15
9	CCN1C(=O)C2C(c3ccc(C)cc3)N3C(=O)N(c4cccc(Br)c4)C(=O)[C@@]3(C)C2C1=O (some centres not stated)	nt	-2	3.7	1	nt	2	nt
10	N=c1c2c(-c3ccccc3)c(-c3ccccc3)n(Cc3ccco3)c2ncn1CCN1CCOCC1	-8	5	-0.1	18	9578	8	7
11	COc1ccc(C2C3C(=O)N(C(C)(C)C)C(=O)C3[C@]3(Cc4ccccc4)C(=O)N(c4cccc(F)c4)C(=O)N23)cc1 (some centres not stated)	nt	8	12	10	nt	2	nt
12	COc1cccc(CNC(=O)CCCn2nc(C)c3c(C)n(-c4ccccc4)nc3c2=O)c1	-2	6	6.6	5	5782	10	2
13	Cc1cccc(NC(=S)NC(=O)CCc2ccccc2)c1	-25	19	2.5	30	2830	42	-2
14	CCCCN(C)CCNC(=O)CN1C(=O)CSc2ccc(S(=O)(=O)N3CCCCC3)cc21	-28	nt	nt	nt	5877	nt	7
15	CCCS(=O)(=O)Nc1c(C(=O)OC)[nH]c2ccccc12	-10	0	-1.8	3	9844	-9	1
16	CCn1c(COc2ccc(Cl)cc2)nnc1SCC(=O)Nc1ccc2c(c1)OCCO2	-20	1	5.7	2	3309	-2	8
17	COc1ccccc1/C=C/C(=O)NNC(=O)c1cc(C)oc1C	-1	3	3.2	2	nt	11	-13
18	COc1c(Br)cc(Br)cc1/C=C1/C(=O)N=C(N)N1C	-14	8	7.9	-2	2561	12	-2
19	COc1ccnc(Oc2ccc(F)cc2)c1C(=O)N/C=N/OCc1cccc(F)c1	-3	4	8.4	1	3480	-1	2
20	CC(C)CN(C(=O)c1ccc([N+](=O)[O-])s1)c1c(N)n(Cc2ccccc2)c(=O)[nH]c1=O	-61	9	7.6	0	6285	-4	0
21	Cc1cc(C(=O)NNC(=O)c2ccccc2[N+](=O)[O-])c(C)o1	-23	9	5.2	0	6407	6	nt
22	COc1cc(NC(=O)CN(c2cc(C)cc(C)c2)S(=O)(=O)c2c(C)[nH]c(=O)[nH]c2=O)cc(OC)c1	-17	-7	-5.3	-6	5417	-5	-11
23	Cc1nn(-c2ccccc2)c(C)c1/C=N/NC(=O)CSc1nnc(SCc2ccc(Cl)cc2)s1	-43	nt	nt	nt	2398	nt	1
24	CC(=O)Oc1ccc(-c2cc3c(OC(C)=O)cc(OC(C)=O)cc3oc2=O)cc1	-26	nt	4.1	nt	5055	-6	-4
25	CCOc1ccc(CN2CCCC(CO)(Cc3ccc(F)cc3)C2)cc1 (configuration not stated)	4	-2	-0.9	19	4138	-2	-16

Some of the entries so far, with two lines to a compound:
Results follow in this order: PrP 5UTR inh, Mtb hypoxia rep, RN4220 kill, Mtb hypoxia rep growth, Bead autofluor, ugtP null kill, BJeLR lethal
10) N=c1c2c(-c3ccccc3)c(-c3ccccc3)n(Cc3ccco3)c2ncn1CCN1CCOCC1
→ -8, 5, -0.1, 18, 9578, 8, 7
11) COc1ccc(C2C3C(=O)N(C(C)(C)C)C(=O)C3[C@]3(Cc4ccccc4)C(=O)N(c4cccc(F)c4)C(=O)N23)cc1 (some centres not stated)
→ nt, 8, 12, 10, nt, 2, nt

Other structures.
item	canonical_smiles	PrP 5UTR inh	Mtb hypoxia rep	RN4220 kill	Mtb hypoxia rep growth	Bead autofluor	ugtP null kill	BJeLR lethal
26	CC(=O)Nc1cccc(S(=O)(=O)N2CCCCCC2)c1	-11	nt	2.3	nt	4671	5	3
27	CC(C)(OC(=O)NC(=O)C(F)(F)F)C(C)(C)OC(=O)NC(=O)C(F)(F)F	-3	10	8.1	6	2062	-2	-7
28	CCn1nc(C)cc1C(=O)N(C)C1CCCN(Cc2ccccc2F)C1 (configuration not stated)	-12	6	3.2	2	5499	7	-4
29	CCN(CC)CCNC(=O)Cn1cnc2sc(C)c(S(=O)(=O)N3CCC(C)CC3)c2c1=O	-10	-4	5.2	1	4203	10	-4
30	CN(CC#CC(O)(c1ccccc1)c1ccccc1)C(C)(C)C	-27	-2	-0.1	-6	6423	4	5
31	O=C(CN(c1ccccc1Cl)S(=O)(=O)c1ccccc1)NCc1ccccc1	-12	6	-3.0	4	6320	4	-2
32	CCCn1c(SCC(=O)OCC)nc(C(F)(F)F)cc1=O	-13	13	5.0	1	2426	5	-2
33	O=C(NCc1ccccn1)c1ccc(Cn2cc(C(F)(F)F)ccc2=O)cc1	-1	11	1.1	-2	4724	0	2
34	Cc1ccc(-c2c(C(=O)N/N=C/c3cccnc3)nnn2-c2nonc2N)cc1	-6	nt	nt	nt	5648	nt	3
35	CCOC(=O)CCNC(=O)N1CCCC(N2CCN(c3ccc(OC)cc3)CC2)C1 (configuration not stated)	5	6	4.3	6	3188	8	-1
36	CC(C)CC(NC(=O)c1nc[nH]c1C(=O)NC(CCCCN)C(=O)OC(C)(C)C)C(=O)OC(C)(C)C (configuration not stated)	nt	10	2.3	7	nt	-7	nt
37	COc1ccc(-n2nc3ccc(N)cc3n2)cc1Cl	-14	13	14	10	nt	1	-4
38	Brc1cccc(C=NNc2nc(N3CCCCC3)nc(N3CCCCC3)n2)c1	nt	-4	-0.9	4	nt	2	nt
39	CC(C)(C)S(=O)(=O)c1cnc(N2CCOCC2)nc1N	-25	-11	4.1	-1	5292	-1	3
40	CCCOc1ccc(N2C(=O)CC(SC(=NCC)NCC)C2=O)cc1 (configuration not stated)	-3	5	3.2	4	1965	0	-7
41	COc1ccc(CCNC(=O)CCNS(=O)(=O)c2ccc3c(c2)CCN3C(C)=O)cc1OC	3	nt	9.9	nt	3518	7	nt
42	CCOC(=O)c1c(C)[nH]c(C(=O)OCC(=O)Nc2cccnc2Cl)c1C	-15	1	5.0	0	?	-2	0
43	COc1ccc(N2CSC3=C(C#N)C(c4cc(OC)c(OC)cc4OC)CC(=O)N3C2)c(OC)c1 (configuration not stated)	-20	-7	7.7	2	5729	2	5
44	O=C(c1cccc(N2C(=O)C3C4C=CC(C4)C3C2=O)c1)N1CCN(c2ccccc2Cl)CC1 (configuration not stated)	-16	-1	-3.5	-11	4262	-6	2
45	CCOc1ccc2ccccc2c1C(=O)NC1C(=O)N2C1SC(C)(C)C2C(=O)O (configuration not stated)	nt	9	2.5	3	nt	-3	nt
46	COc1ccc(/C=N/NC(=O)CCCC(=O)NC2CCCCC2)cc1	5	nt	nt	nt	7066	nt	-2
47	CCOc1ccc2c(C)c(Cl)c(=O)oc2c1	-19	nt	1.2	nt	2379	4	3
48	COc1ccc(NC(=O)c2ccco2)cc1NC(=O)c1ccccc1F	3	-6	2.4	-8	5526	5	-8
49	Cc1cc2c(cc(C(=O)N3CCC(C(=O)NC4CCCC4)CC3)n2Cc2c(F)cccc2Cl)o1	-16	3	-9.7	10	6758	-9	-11
50	CCOC(=O)C1CCN(C(=O)CN(C)S(=O)(=O)c2cc(C)ccc2OC)CC1	-2	1	-2.1	4	15538	-1	1
51	Cn1nc(C(F)(F)F)cc1-c1ccc(S(N)(=O)=O)s1	-42	13	3.6	-2	3793	-3	-15
52	O=C(COc1ncnc2ccccc12)Nc1ccc(S(=O)(=O)N2CCOCC2)cc1	-6	-10	3.4	-13	4619	-2	11
53	CC(C)(C)NC(=O)Cn1nnc(-c2ccccc2NC(=O)c2cnccn2)n1	-12	6	4.2	11	4271	-1	-6
54	C[C@@H]1CN[C@H](CCO)/C1=C\c1ccccc1	-11	-1	3.0	-8	3156	8	nt
55	CCOC(=O)c1c(/N=C/c2cc(OC)cc([N+](=O)[O-])c2O)sc(C)c1C	-11	nt	nt	nt	2543	nt	-2
56	OC[C@@H](O)[C@H](O)C(/C=N/Nc1ccccc1)=N\Nc1ccccc1	-28	nt	nt	nt	4287	nt	2
57	CCCCSc1ccc(NC(=O)c2cccnc2)cc1	nt	-5	3.2	-8	10120	7	11
58	Cc1occc1C(=O)NC1CCCN(Cc2ccc(Cl)cc2)C1 (configuration not stated)	-15	-1	3.0	1	6954	6	7
59	COc1ccc(C)cc1Nc1nc(-c2c[nH]c3ccccc23)cs1	-4	-9	-7.8	-3	2047	-13	-1
60	OCC1OC(OCC2OC(O)C(O)C(O)C2O)C(O)C(O)C1O (configuration not stated)	nt	4	9.0	1	nt	1	nt
61	COc1ccccc1NC(=O)CN1CCCCC1	-5	nt	-2.1	nt	2640	-4	2
62	CC(C)Cn1c(N)c(C(=O)COC(=O)c2c(O)c(Cl)cc(Cl)c2Cl)c(=O)n(C)c1=O	-1	-2	6.6	-5	3693	-14	nt
63	O=S(=O)(c1cccc(-c2nc3n(n2)Cc2ccccc2-3)c1)N1CCCCC1	-20	1	1.3	0	4492	-6	0
64	Cc1c(C(=O)NN=Cc2cccs2)nc2ccccn12	nt	11	1.9	2	nt	4	nt
65	Cc1ccc(CN2C(=O)CCC2C(=O)NCCc2ccccc2)cc1 (configuration not stated)	-16	-7	1.5	0	3819	8	-2
66	O=C(CSc1nnc(C2COc3ccccc3O2)o1)Nc1ccc(F)cc1Cl (configuration not stated)	-29	-2	2.1	5	4559	4	1
67	COc1cc(C(=O)Nc2nnc(CC(C)(C)C)s2)c([N+](=O)[O-])cc1OC	-24	-6	3.8	-6	2044	-3	3
68	CC(=O)Nc1ccc(S(=O)(=O)N(C)CC(=O)NN=Cc2ccncc2)cc1	nt	14	-2.8	8	nt	3	nt
69	COc1ccc(C(=O)O/N=C(\N)Cc2ccc(Cl)cc2Cl)cc1OC	-7	18	2.8	5	2529	-7	4
70	CCN(c1ccc(OC)cc1)S(=O)(=O)c1nnc(NC(=O)c2ccc(C)cc2)s1	-2	8	5.4	-13	5444	4	2
71	CCCCN(C(=O)c1cc2c(s1)CCCCC2)c1c(N)n(CC(C)C)c(=O)[nH]c1=O	-4	0	2.7	-5	3780	-1	nt
72	CCn1c(SCC(=O)NC2CCCC2)nnc1-c1ccoc1C	-7	0	2.0	-3	4248	0	-6
73	CC(=NNC(=O)c1cccc(S(=O)(=O)N2CCOCC2)c1)c1ccc(Cl)cc1	-30	6	2.0	4	4780	6	nt

High-throughput results deposited in PubChem BioAssay by several laboratories.
